# From PubChem
# TRPV1 PAM – enhances activation of the human vanilloid receptor TRPV1 | Q8NER1 | TRPV1-expressing cells, Fluo-8 calcium influx, capsaicin EC20 potentiation; host cell line not named in the record; control for the full effect not named in the record | potentiation, % at 8.33 µM | 320,000 compounds, 0.02% hits; active means potentiation above 80%; inconclusive means 30% to 80%; inactive means below 30%; also: 0% is about no effect
#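 TRPV1-expressing cells were cultured overnight at 35.5C and loaded with Fluo-8 calcium dye for 40 to 90 min at room temperature. After a 10 s baseline, compound was added and calcium influx was read kinetically for 3 min (ex 480/em 520 nm).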
# TRPML1 agonist – agonists of human TRPML1 channel; Q9GZU1; TRPML1-expressing cells, Ca2+ dye fluorescence, FDSS; host cell line not named in the record; reference of the full effect not given here; activation, % (test concentration not listed); 410,000 compounds, 0.12% hits; in the data active = activation above about 50%; inconclusive = about 30% to 50%; inactive = below about 30%; also: 0% is about no effect; the text of the record puts the active cut at 80%
# Target sequence (Q9GZU1 whole entry, looked up): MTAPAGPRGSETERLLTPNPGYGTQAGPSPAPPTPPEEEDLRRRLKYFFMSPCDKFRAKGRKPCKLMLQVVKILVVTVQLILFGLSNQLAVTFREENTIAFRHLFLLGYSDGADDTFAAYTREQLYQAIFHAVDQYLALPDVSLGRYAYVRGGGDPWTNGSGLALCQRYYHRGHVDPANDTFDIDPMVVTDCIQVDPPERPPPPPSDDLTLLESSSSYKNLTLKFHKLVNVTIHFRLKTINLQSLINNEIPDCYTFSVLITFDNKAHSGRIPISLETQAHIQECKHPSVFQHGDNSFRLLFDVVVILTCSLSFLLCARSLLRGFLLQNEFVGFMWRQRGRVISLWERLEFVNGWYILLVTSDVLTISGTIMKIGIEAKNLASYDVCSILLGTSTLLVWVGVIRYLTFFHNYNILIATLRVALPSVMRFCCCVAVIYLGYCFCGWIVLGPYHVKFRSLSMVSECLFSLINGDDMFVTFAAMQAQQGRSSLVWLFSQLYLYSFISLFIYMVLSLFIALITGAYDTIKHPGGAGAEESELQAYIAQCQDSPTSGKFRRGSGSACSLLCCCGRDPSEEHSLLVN
#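 Kinetic FDSS Ca2+ read in Tet-induced TRPML1-DL cells (ABD Ca8 dye plus quencher, 45-90 min RT loading): baseline, then compound, then 110 s agonist window; EC80 agonist 54-4 at 4uM final added afterwards for a 110 s antagonist window.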
# CtBP-E1A inh – CtBP/E1A binding inhibition; AlphaScreen GST-E1A/His-CtBP binding, 1536-well; hits give low values; control for the full effect not named in the record; activity change, % (concentration not given with the values); 340,000 compounds, 0.49% hits; in the data active means activity change below about -65%; inconclusive means about -30% to -65%; inactive means above about -30%; also: % is scaled to controls: 0 for no effect and ±100 for the full control effect
#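 AlphaScreen with 125 nM GST-E1A and 125 nM His-CtBP (5X stocks) in Tris pH 8.0, 300 mM NaCl, BSA, Tween 20, TCEP. Compounds preincubated 2 h at 37 deg C, then glutathione donor/nickel acceptor beads added for 1 h at 37 deg C in dark.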
# TRPML1 blocker – inhibitors of human TRPML1 channel | Q9GZU1 | TRPML1-inducible cells, Ca2+ dye fluorescence, FDSS; hits give low values; inhibition of EC80 agonist-evoked calcium signal | activity change, negative = inhibition, % (test concentration not listed) | 390,000 compounds, 0.02% hits | AID 624415; in the data active means activity change below about -50%; inconclusive means about -30% to -50%; inactive means above about -30%;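 also: stimulus is agonist 54-4 at its EC80 concentration; % is scaled to controls: 0 for no effect and ±100 for the full control effect; compound concentration not given in the record; the text of the record puts the active cut at -80%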
#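 Calcium fluorescence in TRPML1-DL cells induced overnight with Tet: a 110 s read after compound pin addition, then a 110 s antagonist read after challenge with 54-4 at 4 uM final (EC80).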
# Six1-Eya2 blk – inhibitors of human Six1/Eya2 interaction; Q15475+O00167; 360,000 compounds, 0.56% hits; AlphaScreen GST-Six1/His-Eya2 binding, biochemical; hits give low values; control for the full effect not named in the record; AID 651725; activity change, % (concentration not given with the values); in the data active = activity change below about -65%; inconclusive = about -30% to -65%; inactive = above about -30%; also: % is scaled to controls: 0 for no effect and ±100 for the full control effect
#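 Compounds are tested against tagged Six1 and Eya2 proteins bridged by glutathione donor and nickel acceptor beads; after a one-hour incubation at 37 °C without light, AlphaScreen emission is recorded.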
# D2 PAM – potentiates the human D2 dopamine receptor allosterically. P14416. DiscoveRx D2 beta-arrestin cells, luminescence, 90 min; 100% = 57 uM dopamine signal. potentiation, % (test concentration not listed). 360,000 compounds, 0.23% hits; active = potentiation of 50% or more; inconclusive = 30% to 50%; inactive = 30% or less;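 also: compound concentration not given in the record; tested on top of an EC20 dose of dopamine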
# Target sequence (P14416 whole entry, looked up): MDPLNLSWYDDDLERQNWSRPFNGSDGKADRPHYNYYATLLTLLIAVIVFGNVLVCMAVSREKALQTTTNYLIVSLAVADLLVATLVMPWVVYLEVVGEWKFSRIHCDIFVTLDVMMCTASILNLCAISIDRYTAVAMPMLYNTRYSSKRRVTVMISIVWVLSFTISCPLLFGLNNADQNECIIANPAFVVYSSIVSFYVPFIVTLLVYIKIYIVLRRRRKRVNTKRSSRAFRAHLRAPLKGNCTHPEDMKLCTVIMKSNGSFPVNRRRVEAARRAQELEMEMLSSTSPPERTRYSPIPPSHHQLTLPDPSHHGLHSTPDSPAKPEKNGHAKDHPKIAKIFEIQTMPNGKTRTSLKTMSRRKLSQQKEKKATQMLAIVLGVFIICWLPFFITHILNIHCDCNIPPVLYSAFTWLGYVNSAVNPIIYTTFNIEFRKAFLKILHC
#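 D2 cells co-treated with compound plus 50 nM dopamine (EC20) for 90 min at 37 deg C to detect potentiation. Beta-arrestin recruitment was read as enzyme-fragment luminescence after 1 h at ambient temperature. Full response was set by 57 uM dopamine.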
# * = called active by the depositor; ? = inconclusive; / = not tested or not shown; & = joins results of further samples.
SMILES,TRPV1 PAM,TRPML1 agonist,CtBP-E1A inh,TRPML1 blocker,Six1-Eya2 blk,D2 PAM
CCn1c(C(C)NC(=O)c2ccccc2C)n[nH]c1=S (stereo not drawn),3,1.0,/,-13,-2,-1
COc1cccc(C(=O)COC(=O)c2cccs2)c1,4,0.4,16,-1,2,-6
CN(CC(=O)Nc1ccccc1Br)C(=O)CN1CCN(Cc2ccc(Cl)cc2)CC1,3,-0.9,/,7,2,-21
Cc1nn(Cc2ccc(Cl)cc2Cl)c(C)c1NC(=O)C1C2CCC(O2)C1C(=O)O (stereo not drawn),8,0.1,2,0,5,-13
Cc1cc2occ(CC(=O)NC3=NCCS3)c2cc1C(C)C,-12,1.3,-2,13,1,1
COc1ccccc1NC(=O)C1C2C=CC3(CN(Cc4cccnc4)C(=O)C13)O2 (stereo not drawn),/,0.1,-7,15,4,-5
O=C(NCc1ccc(F)cc1)C(c1ccccc1)N(C(=O)c1csnn1)C1CC1 (stereo not drawn),-19,0.9,7,16,6,-6
CC(=O)Nc1ccc(S[C@@H](CCN2CC[C@H](O)CCC2=O)c2ccccc2)cc1,-3,-0.4&-0.4,-1,-13,1,-8
CCN(C(=O)c1cc2c(s1)-c1ccccc1OC2)c1cc(OC)ccc1OC,-3,3.3,-10,6,-7,-8
CC1CN(CC(=O)Nc2nc(-c3ccc(Cl)cc3)cs2)CC(C)O1 (stereo not drawn),/,-0.2,-2,6,-12,1
CSc1ccc(C(=S)N2CCN(C(c3ccccc3)c3ccccc3)CC2)cc1,1,-0.4,-6,1,-16,-17
CCc1cc(-c2nc(N)ncc2-c2ccc(Br)cc2)c(O)cc1OC,-12,0.8,-1,-10,-9,0
CC1=CC(C)(C)N(C(=O)CSc2nncn2C)c2ccccc21,1,-0.4,38,-2,0,-8
CC(=O)c1c(O)cc(O)cc1CC(=O)O,9,/,8,/,7,-4
S=C(N/N=C1\CCc2ccccc21)NC1CCCCC1,-22,-0.2,/,-10,0,-17
O=C(NC1CCCCC1)c1cccc2c1C(=O)c1ccc(N3CCCC3)cc1S2(=O)=O,/,22,?,7,2,-8
CCCCCCCCCCCC(=O)c1c(O)cccc1O,-3,-0.1,0,-3,-4,-1
CN(Cc1ccccc1)C(=O)[C@@H]1CCCN1C(=O)[C@@H]1CCCN1C(=O)c1cccs1,/,-0.4,9,/,9,/
Cc1ccccc1OCC(=O)OCC(=O)Nc1cc(S(=O)(=O)N2CCCCC2)ccc1Cl,12,0.2,7,55,-6,6
COc1ccc(S(=O)(=O)N(C)C[C@H]2Oc3ccc(NS(=O)(=O)c4c(C)noc4C)cc3C(=O)N([C@H](C)CO)C[C@@H]2C)cc1,/,-0.6,1,3,-5,-3
CCC(C(=O)N/N=C/c1cccnc1)c1ccccc1 (stereo not drawn),4,-0.6,4,-11,5,3
COC(=O)c1ccc(CSC2=NC[C@@H]3[C@@H]4C(=O)N(C)C(=O)[C@@H]4[C@](C)(C(=O)OC)N23)cc1,/,3.8,7,3,15,-6
Cc1ccc(N(C(=O)CS(=O)CC(=O)Nc2ccc(F)cc2)C(C)C(=O)NC(C)(C)C)cc1 (stereo not drawn),?,0.5,0,3,8,-7
CC(=O)N(C)c1ccc(NC(=O)Nc2ccc(C)c(C)c2)cc1,2,-0.7,-6,5,-18,3
NC(=O)C1C2CCC(C2)C1C(N)=O (stereo not drawn),/,-0.4,0,10,0,-37
N#Cc1ccsc1NC(=O)CN1CCN(S(=O)(=O)c2ccccc2C(F)(F)F)CC1,12,1.4,6,-12,-6,19
Cc1ccc(C2(C)NC(=O)N(CC(=O)N3CC(=O)Nc4ccccc43)C2=O)cc1 (stereo not drawn),/,1.6,5,8,0,0
Cc1ccc(-n2nnnc2Sc2ccc(S(=O)(=O)NCCN(C)C)cc2[N+](=O)[O-])cc1,5,1.0,0,-6,12,4
Nc1cccc(OCCCCCOc2cccc(N)c2)c1,/,-0.3,-11,0,-17,-4
Cc1cc(-c2nnc(SCC(=O)Nc3ccccc3F)n2N)n[nH]1,12,-0.5,-5,15,-1,-1
CS(=O)(=O)N(CC(=O)N1CCN(Cc2ccc3c(c2)OCO3)CC1)Cc1ccc(Cl)cc1,-16,2.5,-9,30,-4,-4
Cn1c(=O)c2c(nc(Oc3ccccc3N)n2C)n(C)c1=O,-22,-0.2,/,-29,6,11
CC(=O)c1cccc(NC(=O)c2ccncc2)c1,-19,0.4,3,18,-1,-1
CCC(CC)NC(=O)Nc1ccc(F)c(Cl)c1,5,4.4,-5,-1,0,-4
Cc1c(-c2ccccc2)[n+](=O)c(-c2ccc(Br)cc2)c(C)n1[O-],-1,1.1,/,3,1,-5
CSc1ccccc1C(=O)Nc1c(C)cccc1C,3,-0.9,0,-4,-5,-40
CCOc1ccc(C(=O)Nc2ccc(-c3cc4ccccc4oc3=O)c(C)c2)cc1[N+](=O)[O-],-2,0.6,/,37,2,1
CC1CCN(C(=S)Nc2ccc3nc4n(c(=O)c3c2)CCCCC4)CC1,2,-0.4,0,3,9,-5
CC(Sc1nnc(C(F)(F)F)n1C)C(=O)NC(N)=O (stereo not drawn),1,-0.2,8,25,0,-11
CCCC(=O)N1CCN(Cc2ccc3c(c2)OCO3)CC1,1,0.0,-4,19,9,8

# As a working copy, part of the list above:
SMILES,TRPV1 PAM,TRPML1 agonist,CtBP-E1A inh,TRPML1 blocker,Six1-Eya2 blk,D2 PAM
COC(=O)c1ccc(CSC2=NC[C@@H]3[C@@H]4C(=O)N(C)C(=O)[C@@H]4[C@](C)(C(=O)OC)N23)cc1,/,3.8,7,3,15,-6
Cc1ccc(N(C(=O)CS(=O)CC(=O)Nc2ccc(F)cc2)C(C)C(=O)NC(C)(C)C)cc1 (stereo not drawn),?,0.5,0,3,8,-7
CC(=O)N(C)c1ccc(NC(=O)Nc2ccc(C)c(C)c2)cc1,2,-0.7,-6,5,-18,3
NC(=O)C1C2CCC(C2)C1C(N)=O (stereo not drawn),/,-0.4,0,10,0,-37
N#Cc1ccsc1NC(=O)CN1CCN(S(=O)(=O)c2ccccc2C(F)(F)F)CC1,12,1.4,6,-12,-6,19
Cc1ccc(C2(C)NC(=O)N(CC(=O)N3CC(=O)Nc4ccccc43)C2=O)cc1 (stereo not drawn),/,1.6,5,8,0,0
Cc1ccc(-n2nnnc2Sc2ccc(S(=O)(=O)NCCN(C)C)cc2[N+](=O)[O-])cc1,5,1.0,0,-6,12,4
Nc1cccc(OCCCCCOc2cccc(N)c2)c1,/,-0.3,-11,0,-17,-4
Cc1cc(-c2nnc(SCC(=O)Nc3ccccc3F)n2N)n[nH]1,12,-0.5,-5,15,-1,-1
CS(=O)(=O)N(CC(=O)N1CCN(Cc2ccc3c(c2)OCO3)CC1)Cc1ccc(Cl)cc1,-16,2.5,-9,30,-4,-4
Cn1c(=O)c2c(nc(Oc3ccccc3N)n2C)n(C)c1=O,-22,-0.2,/,-29,6,11
CC(=O)c1cccc(NC(=O)c2ccncc2)c1,-19,0.4,3,18,-1,-1
CCC(CC)NC(=O)Nc1ccc(F)c(Cl)c1,5,4.4,-5,-1,0,-4
Cc1c(-c2ccccc2)[n+](=O)c(-c2ccc(Br)cc2)c(C)n1[O-],-1,1.1,/,3,1,-5
CSc1ccccc1C(=O)Nc1c(C)cccc1C,3,-0.9,0,-4,-5,-40
CCOc1ccc(C(=O)Nc2ccc(-c3cc4ccccc4oc3=O)c(C)c2)cc1[N+](=O)[O-],-2,0.6,/,37,2,1

# Following part:
SMILES,TRPV1 PAM,TRPML1 agonist,CtBP-E1A inh,TRPML1 blocker,Six1-Eya2 blk,D2 PAM
Cc1nc(C)c(-c2nnc(-c3ccc(C(C)(C)C)cc3)o2)cc1C(=O)NN,1,0.3,10,21,0,15
O/N=C(\c1ccc(Cl)cc1)c1ncc(C(F)(F)F)cc1Cl,-6,2.7,2,24,-1,-13
Nc1c(N(Cc2ccco2)C(=O)COc2ccccc2Cl)c(=O)[nH]c(=O)n1Cc1ccccc1,2,-0.9,/,-1,1,-9
CSc1ccccc1NC(=O)CN(C)C(C)C(=O)NC(=O)NC1CCCCC1 (stereo not drawn),-9,1.4,-10,-15,-1,-58
C[C@H](NC(=O)Cc1cccc2ccccc12)C(=O)N1CCOCC1,/,-0.5,2,3,4,-1
Nc1nonc1-n1nncc1-c1ccccc1,13,-0.4,1,0,-4,-1
CC1CCCN(C(=O)CCNS(=O)(=O)c2ccc3c(c2)oc(=O)n3C)C1 (stereo not drawn),-9,-0.1,2,13,-5,-2
Cc1ccc(N(CC(=O)NC2CCCCC2)C(=O)c2ccc(C)s2)cc1,-22,0.6,3,13,3,-16
CC12CCC(C(N)=O)(c3nc4ccccc4nc31)C2(C)C (stereo not drawn),10,-0.5,11,-26,-12,-27
COc1ccccc1C(C#N)c1cccc(Cl)n1 (stereo not drawn),15,0.7,/,31,5,-5
Cc1cc(OCC(=O)N2CCN(c3ccccn3)CC2)c(C)cc1Br,-16,1.7,-1,16,2,-6
CCOC(=O)C1(C)C=C(Nc2ccc(C)cc2)C(=O)N1c1ccc(C)cc1 (stereo not drawn),7,2.8,4,37,-2,-9
COc1ccc(-c2nc(SC(CC(=O)NCc3ccccc3)c3ccc(OC)c(OC)c3)n[nH]2)cc1 (stereo not drawn),?,1.2,/,36,?,-11
COc1ccc(C(=O)NCC2CCCO2)cc1OC (stereo not drawn),-7,/,2,/,5,-3
Cc1cc(C)c2cc(C(=O)Nc3ccccc3)[nH]c2c1,-7,1.2,0,10,6,-13
C[C@@H]1COC(=O)[C@H](CC(=O)OC(C)(C)C)C/C=C\C[C@H](CC(=O)NCCO)C(=O)N1,/,-0.3,5,-3,7,-6
COCCCN1C(=O)C(CC(=O)NC2CC2)CC(C(=O)N(C(C)C)C(C)C)=C1C (stereo not drawn),/,-0.1,8,/,7,0
COC(=O)c1ccc(NC(=O)c2sc3nc(-c4ccccc4)cn3c2C)cc1,4,-0.1,4,7,0,-5
Cc1ccn2c(=O)c(C(=O)NCCCN3CCCC3=O)c(O)nc2c1,-3,-0.4,5,-4,1,0
Cc1ccccc1C(=O)NC(=S)NCCC1=CCCCC1,-1,1.1,20,25,8,-8
CCCCCC1C(=O)C[C@@H]2CCN3C(=O)CCC[C@H]1[C@H]23 (stereo partly drawn),/,0.7,-21,-4,7,-3
O=C(NCCOC(=O)c1ccc(F)cc1)c1ccc(F)cc1,8,/,-9,/,-13,-5
CC1(C)CC2(CCO1)OC(=O)CC2C(=O)NCc1ccccc1 (stereo not drawn),-1,0.2,2,-13,5,-8
O=C(O)CN1C(=O)C(=O)N(Cc2cccc(F)c2)C1=O,-28,0.7,3,-3,7,-1
CC(C)CNS(=O)(=O)c1cc(C(=O)OCC(=O)N2CCOCC2)c(Cl)cc1Cl,3,0.5,7,-3,9,-4
CCOCCCNC(=O)C(NC(=O)C1CCC(=O)N1)c1ccc(C)cc1 (stereo not drawn),-4,0.7,5,-16,5,-14
O=c1cc(-c2ccc(C(F)(F)F)cc2)oc2ccccc12,/,-0.9,-1,-3,-2,-8

# Some of the entries so far, as labelled records.
Structure: CC1(C)CC2(CCO1)OC(=O)CC2C(=O)NCc1ccccc1 (stereo not drawn)
  TRPV1 PAM = -1 | TRPML1 agonist = 0.2 | CtBP-E1A inh = 2 | TRPML1 blocker = -13 | Six1-Eya2 blk = 5 | D2 PAM = -8

Structure: O=c1cc(-c2ccc(C(F)(F)F)cc2)oc2ccccc12
  TRPV1 PAM = / | TRPML1 agonist = -0.9 | CtBP-E1A inh = -1 | TRPML1 blocker = -3 | Six1-Eya2 blk = -2 | D2 PAM = -8
